NPYLR7 agonist = agonists of mosquito NPYLR7 receptor, primary screen, cell-based, Aedes aegypti, calcium fluorescence, mosquito biting behavior; activation, % at 10 µM; HEK293T NPYLR7/Galpha15, GCaMP6s calcium fluorescence; Aedes aegypti neuropeptide Y-like receptor 7 (NPYLR7); 0.15% of 270,000 active; in the data active means activation above about 40%;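 further: 0% = vehicle and 100% = reference agonist at the receptor; some compounds past the cut are filed as inactive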
NPYLR7 agonist max-min = recorded beside NPYLR7 agonist, whose call it bears; activation, %; measured here: Max-Min RFU normalised activation; some inactives read as strong as hits;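 span of the calcium signal over five minutes; 0% = vehicle and 100% = native peptide agonist; compound fluorescence can raise it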
The depositor's hits bear a star; & = joins results of further samples. Not all compounds are listed, so the mix of outcomes need not match the whole.

SMILES | NPYLR7 agonist | NPYLR7 agonist max-min
COc1ccc(C2NN(Cc3ccccc3)C3C(=O)N(C)C(=O)C23)cc1 (stereo not drawn) | 27.3 | 31.9
Cc1ccc(C(=O)N2CCN(c3ccc([N+](=O)[O-])cc3)CC2)o1 | -4.7 | 21.5
COc1ccccc1-c1nc2cc(C)ccn2c1NC(=O)c1ccc(C)cc1 | 5.3 | 5.9
Cc1nc(C(C)C)sc1C(=O)N1CCCCC1C(=O)O (stereo not drawn) | 4.3 | 0.2
NCc1ccccc1CC(=O)N[C@@H]1C(=O)N2C(C(=O)O)=C(CSc3nnnn3CC(=O)O)CS[C@H]12 | 3.4 | 5.7
COc1ccc(-c2csc(-n3[nH]c(C)c(N=Nc4cc(C(F)(F)F)ccc4Cl)c3=O)n2)cc1 | -7.0 | -10.6
CN(CCOC(=O)c1cccnc1)C(=O)c1cccnc1 | 2.4 | 2.9
CC(CN(C)c1ccccc1)NC(=O)c1cccnc1 (stereo not drawn) | 9.0 | 3.5
CCNC(=O)Nc1cn(CC)c2ccccc12 | -1.0 | -3.5
O=C(c1ccc(F)cc1)N1CCSC12C(=O)N(Cc1ccccc1Cl)c1ccc(Cl)cc12 (stereo not drawn) | 11.6 | 13.5
CCOC(=O)Nc1cccc(-n2cnnc2)c1 | -5.3 | -5.6
N#Cc1ccccc1OCC(=O)Nc1ccccc1N1CCCCC1 | 5.8 | 0.6
Cc1nc(NCC(O)COc2ccc(Cl)c(C)c2)c2cnn(C)c2n1 (stereo not drawn) | 10.1 | 2.4
CCCCCCCCCC(=O)N1CCN(C(=O)CCCCSc2nnc(-c3ccc(C)cc3)n2-c2ccccc2)CC1C (stereo not drawn) | -1.7 | 9.4
Cc1ccc(OC(=S)Nc2ccc(O)cc2)cc1 | 0.8 | 0.1
CC1(Cc2ccccc2C#N)C(=O)Nc2ccc(-c3cccc(C(F)(F)F)c3)cc21 (stereo not drawn) | 2.7 | 0.8
CC(C)c1ccc(C=NNC(=O)c2cccc(I)c2)cc1[N+](=O)[O-] | -0.4 | 2.9
COc1ccc(Br)cc1/C=C1N=C(/C=C/c2ccccc2)OC/1=O | 8.7 | 6.0
CCCc1nc(N2CCCN(S(=O)(=O)Cc3ccccc3)CC2)c2c(-c3ccccc3)noc2n1 | 21.0 | 7.9
CCn1c(C)cc(C(=O)CSc2nnc(N)s2)c1C | 4.1 | 1.6
CNC(=O)C(C)N(C)C(=O)c1ccccc1-c1ncc[nH]1 (stereo not drawn) | 2.5 | -1.3
COc1ccccc1CCN(C)S(=O)(=O)c1ccc(F)c(C#N)c1 | -0.8 | -6.9
Cc1csc(SCC(=O)N(C2CCCC2)C2CCS(=O)(=O)C2)n1 (stereo not drawn) | 13.0 | 14.3
COC(=O)CN(CC(=O)NC(C)C)Cc1cc(Cl)ccc1O | -2.6 | -3.2
Cc1noc(CCCNC(=O)c2cccc(OC3CCCC3)c2)n1 | 8.0 | 2.6
CCONC(=O)C1CC(=O)N(c2cc(F)cc(F)c2)C1 (stereo not drawn) | 1.4 | 1.8
CCOC(=O)NC1CCCN(C(=O)Cc2ccc(OC)c(OC)c2)C1 (stereo not drawn) | 15.9 | 7.8
Cc1nnc(SCC(=O)Nc2ccc(Cl)cc2F)n1C | 23.7 | 11.7
CC(C#N)Oc1ccc(CNCCn2cccn2)cc1 (stereo not drawn) | 1.3 | -1.2
CC12CCCCC1c1ccccc1C(=NCC(=O)O)N2 (stereo not drawn) | 0.8 | -2.7
COc1ccc(OC)c(NC2=NS(=O)(=O)c3ccccc32)c1 | -13.0 | -20.8
NC(=O)CCCCC(=O)OCCCc1cccs1 | -1.7 | -2.6
CC1CN(C(=S)NC(=O)C2CCCC2)CCN1C(=S)NC(=O)C1CCCC1 (stereo not drawn) | -6.5 | -13.1
CC(c1ccc(C(=O)N(C)Cc2ccc3c(c2)OCO3)o1)N1CCCCC1 (stereo not drawn) | 22.2 | 7.6
COCCSc1nc2c(c(=O)n(C)c(=O)n2C)n1CCCc1ccccc1 | -4.6 | -8.1
COc1ccc(C2SCC(=O)N(CC(=O)NCc3ccncc3)c3c2c(-c2ccccc2)nn3-c2ccc(F)cc2)cc1OC (stereo not drawn) | 14.4 | 18.3
COc1cc(C(=O)NCCC2CCCN2C)ccc1OC1CCN(C2CCCC2)CC1 (stereo not drawn) | 4.2 | 3.1
O=C(NCc1cccc(F)c1)C1C2CC1CN(Cc1ccccc1)C2 (stereo not drawn) | -4.2 | -5.2
O=C(c1cccc2c1OCC2)N1CCc2c(nc[nH]c2=O)C1 | 3.5 | 0.1
Cc1ccc(C)c(Cn2c(CCNC(=O)CCCO)nc3ccccc32)c1 | -7.7 | -9.6

As a short view, some entries already given.
SMILES | NPYLR7 agonist | NPYLR7 agonist max-min
CNC(=O)C(C)N(C)C(=O)c1ccccc1-c1ncc[nH]1 (stereo not drawn) | 2.5 | -1.3
COc1ccccc1CCN(C)S(=O)(=O)c1ccc(F)c(C#N)c1 | -0.8 | -6.9
Cc1csc(SCC(=O)N(C2CCCC2)C2CCS(=O)(=O)C2)n1 (stereo not drawn) | 13.0 | 14.3
COC(=O)CN(CC(=O)NC(C)C)Cc1cc(Cl)ccc1O | -2.6 | -3.2

Next section.
SMILES | NPYLR7 agonist | NPYLR7 agonist max-min
O=c1nc(SCc2ccc(Cl)c(Cl)c2)nc2ccccn12 | 2.8 | 0.4
CC(C)=CCN1CCN(Cc2cccn2-c2ccc(Cl)cn2)CC1CCO (stereo not drawn) | 3.6 | -5.3
O=C(CSc1ccc2nnc(CCNC(=O)c3ccccc3)n2n1)NCc1ccc(F)cc1 | 3.3 | -7.7
COC(=O)C1=C(C)NC2=C(C(=O)CC(c3ccc(OC)cc3)C2)C1c1ccccc1OC (stereo not drawn) | -1.3 | -3.6
COc1ccc(-c2nc3cccc(C)n3c2NCc2ccccc2)cc1OC | 6.5 | 6.9
CCN(CC)S(=O)(=O)c1c(C)nn(CC(=O)Nc2ccc(I)cc2)c1C | -14.2 | -12.1
Cc1nnc(Sc2nc3c(c(=O)[nH]c(=O)n3C)n2CCc2ccccc2)s1 | -5.4 | -0.4
C=C(C)COc1ccc(C(=O)N2CCOCC2CCC)cc1 (stereo not drawn) | 15.0 | 0.7
COCc1cnc(C)nc1N | -5.1 | -15.5
BrCC1CN=C(c2cccs2)O1 (stereo not drawn) | 3.9 | 0.9
COc1ccccc1OCCCN1C(=O)C2(SC(NC(C)=O)=NN2C(C)=O)c2cccc(C)c21 (stereo not drawn) | 0.0 | -0.2
Cc1ccccc1C(C)NC(=O)Cn1cc(Br)c(=O)[nH]c1=O (stereo not drawn) | -2.2 | 3.1
C=CCn1c(SCC(=O)N2CCCCCC2)nc2scc(C3CC3)c2c1=O | 8.9 | 8.7
O=C(CCc1nnc(Cc2c[nH]c3ccccc23)o1)N1CC2C[C@@H]3CC1C[C@H](C2)C3 | 4.5 | 3.8
COc1cc(CN2CCN(Cc3ccc(NC(C)=O)cc3)CC2CCO)cc(OC)c1 (stereo not drawn) | 8.3&8.0 | 5.9&0.8
O=C1NC(=S)SC1=Cc1cccc(C(F)(F)F)c1 | 0.7 | 0.6
CC(c1cccc(-c2ccc[nH]c2=O)c1)N1CCCC1 (stereo not drawn) | 0.1 | 3.5
O=C(Cn1c(=O)oc2ccccc21)N1CCSc2ccccc21 | 9.3 | 12.4
COCCNC(=O)Cn1c(-n2nc(C)cc2C)nc(C)c(C)c1=O | -0.2 | 5.2
N#Cc1cc(F)ccc1CSc1ncc[nH]1 | 3.1 | 0.6

5 records picked at random from the list so far:
SMILES | NPYLR7 agonist | NPYLR7 agonist max-min
C=CCn1c(SCC(=O)N2CCCCCC2)nc2scc(C3CC3)c2c1=O | 8.9 | 8.7
BrCC1CN=C(c2cccs2)O1 (stereo not drawn) | 3.9 | 0.9
Cc1nnc(Sc2nc3c(c(=O)[nH]c(=O)n3C)n2CCc2ccccc2)s1 | -5.4 | -0.4
COc1cc(CN2CCN(Cc3ccc(NC(C)=O)cc3)CC2CCO)cc(OC)c1 (stereo not drawn) | 8.3&8.0 | 5.9&0.8
COCCNC(=O)Cn1c(-n2nc(C)cc2C)nc(C)c(C)c1=O | -0.2 | 5.2

Later entries:
SMILES | NPYLR7 agonist | NPYLR7 agonist max-min
c1ccc(OCc2noc(CN3CC[C@@H]4CCCC[C@H]4C3)n2)cc1 | -8.3 | -10.8
CC(C)NCc1nnc(-c2ccccc2Br)o1 | -1.1 | -1.9
Cc1ccc(CN(Cc2ccc(C(O)(c3cccc(F)c3)c3cccc(F)c3)o2)C2CC2)o1 | 3.8 | 4.6
Cc1ccc(-c2nc(CS(=O)C(C)C(=O)NC(C)(C)C)cs2)cc1 (stereo not drawn) | 13.7 | 11.7
COc1cc(Cn2cc(CC(=O)O)c3ccccc32)cc(OC)c1 | -5.1 | 2.4
CC(C)(C)n1[nH]c(-c2ccccc2)c(C2=C(N3CCOCC3)C(=O)N(Cc3ccccc3)C2=O)c1=O | 3.2 | 0.6
CCN(C(=O)c1ccccc1N1CCC(NC(=O)Cc2cccs2)CC1)C1CCCCC1 | -4.8 | 6.5
COCCN(CC(=O)N(CCc1c[nH]c2ccccc12)Cc1ccc(OC)c(OC)c1)C(=O)C1CCC1 | 16.6 | 19.9
Nc1cc(-c2ccc(Cl)cc2)nn1-c1ccc(C(=O)Nc2cccc(Cl)c2)cc1 | -2.9 | -6.7
CCC1CN(Cc2cnc(N3CCCCC3)nc2)CCN1C(C)C (stereo not drawn) | -10.4 | -11.4
Cc1c2c(c(C)n1-c1ccccc1)P(=O)(Nc1ccc([N+](=O)[O-])cc1)N(CCC#N)N=C2 (stereo not drawn) | 4.7 | 3.5
Cc1cccc(Cn2c(=O)c(C(=O)NCc3cccnc3)nn(-c3ccc(C)c(Cl)c3)c2=O)c1 | 20.1 | 19.0
O=C(Cn1c2ccccc2c(=O)c2ccccc21)Nc1ccc(OC(F)(F)F)cc1 | -0.5 | -4.7
Cc1ncsc1CCC(=O)NCc1nc(-c2ccccc2)n[nH]1 | -2.7 | -5.3
COCCN(CC(=O)N1CCc2sccc2C1c1ccc(Cl)cc1Cl)S(=O)(=O)c1cccc(C(F)(F)F)c1 (stereo not drawn) | 1.4 | 13.3
C=CCn1c(SCc2cccc(C(=O)OC)c2)nnc1-c1cc(OC)cc(OC)c1 | 3.6 | 5.9
Cc1ccc(-c2nc(C)c(C(C)C)c(N3CCN(S(=O)(=O)c4ccc(Br)cc4)CC3)n2)cc1 | -5.7 | -4.9
CN(Cc1ccccc1)c1ncccc1CNC(=O)[C@@H]1Cc2ccccc2N1 | 7.6 | 0.7
CCCCNC(=O)N1CCN(c2cc(Oc3ccc(F)cc3)ncn2)CC1 | -8.9 | -2.4
O=C(c1ccccc1)N(CCn1cccn1)c1nc2ccccc2s1 | -9.9 | -12.8
COc1ccccc1NC(=O)Cn1cccc(-c2nc(-c3ccc(C)cc3)no2)c1=O | -1.7 | -6.9
CCC1(C)Cc2c(sc3c2c(=O)n(C)c2nnc(SCCc4ccccc4)n32)CO1 (stereo not drawn) | -12.4 | -14.8
CCOc1ccc(Nc2nnc(Cc3ccc(C)cc3)c(=O)[nH]2)cc1 | 7.4 | 3.2
CN1C(=O)CC(C(=O)Nc2ccccc2F)SC1=Nc1ccc(Cl)cc1 (stereo not drawn) | 4.2 | 1.1
CC(=O)Nc1ccc(Nc2cc3c(cn2)cc(-c2cnn(C)c2)n3Cc2ccccc2)cc1 | 7.2 | 9.8
Brc1ccccc1-c1nc(-c2cccnc2)no1 | -4.3 | -8.5
N#CCn1cc[n+](CCCNP2(=O)C=C(c3ccccc3)OC(c3ccccc3)=C2)c1 | 2.6 | 0.9
Cc1cc(N2CCCN(Cc3ccc4cccc(O)c4n3)CC2)ccn1 | 5.2 | 1.2
O=C(c1cnn2c1NC(c1ccc(F)cc1)CC2C(F)(F)F)N1CCOCC1 (stereo not drawn) | -1.6 | -8.8
O=C(O)c1ccn(-c2cccc(C(F)(F)F)c2)n1 | 5.2 | 1.5
Cc1ccc2nc(C)c(NC(=O)c3ccc(S(=O)(=O)N4CCOCC4)cc3)c(=O)n2c1 | 1.7 | 0.6
O=C(O)C12CCCC(CBr)(CCC1)C2 | 5.6 | 1.3
COc1ccc(CN(Cc2ccco2)CC(O)COCc2ccccc2)cc1 (stereo not drawn) | -1.6 | 7.6
COC(=O)CCC(=O)NC1CC(=O)N(Cc2cccc(F)c2)C1 (stereo not drawn) | 5.3 | 3.6
CNS(=O)(=O)c1cc(C(=O)N2CCCC2c2ccc3c(c2)OCCO3)ccc1OC (stereo not drawn) | 1.9 | -2.3
CCOc1ccc(-c2nccn2Cc2cccnc2)cn1 | 0.8 | -2.1
COc1cc(Cl)cc(C(=O)N(C)CCC(C)(C)O)c1 | -8.4 | -10.9
CC(=O)c1[nH]c(C)c(C(=O)NC2CCC(C)CC2)c1C (stereo not drawn) | 2.4 | -2.8
CSc1ccc(C2SCC(=O)N2c2cccc(F)c2)cc1 (stereo not drawn) | -1.7 | -9.7
CCOC(=O)C1=C(C)N(C)C(=O)NC1c1ccc(C)s1 (stereo not drawn) | -4.7 | -6.3
CS(=O)(=O)N(CC(=O)N1CCN(c2ccccc2F)CC1)c1ccccc1 | -8.2 | -11.8
COc1cc(-c2nc(SCC(O)OC)nc3c2CCCC3)cc(OC)c1OC (stereo not drawn) | -7.6 | -10.0
O=C1CCCc2cc(C(=O)N3CCC(Oc4cccnc4)C3)ccc2N1 (stereo not drawn) | -0.7 | -0.9
O=C(COCc1ccccc1)NCCNc1nc(-c2ccc(F)cc2)nc2cc(Cl)ccc12 | 8.6 | 8.3
CN1CCN(C(=O)CCC2CCCN(Cc3ccc4ccccc4c3)C2)CC1 (stereo not drawn) | 8.1 | 3.5
Cc1ccc(NC(=O)CCCNC(=O)c2ccco2)c(Br)c1 | 6.5 | 3.9
Cc1ccc(C(C)NC(=O)C(F)(F)C(F)(F)C(F)(F)F)cc1C (stereo not drawn) | 3.2 | 10.2
COC(=O)C(O)(COC(=O)c1cccc(Cl)c1)C(O)(c1nccn1C)C(F)(F)F (stereo not drawn) | 0.7 | 3.4
CCOC(=O)c1ccccc1N(C)C(=O)CCc1c(C)noc1C | -0.3 | -1.6

From PubChem
